GIV-Gai inh – inhibitors of GIV peptide binding to Galpha-i3, primary screen, biochemical, fluorescence polarization, FITC-GIV GBA peptide, rat Galphai3; Guanine nucleotide-binding protein G(i) subunit alpha-3 (Rattus norvegicus), P08753; 210,000 tested, 0.42% active; 90 min; stronger effect = lower value; scaled: aluminum fluoride 0%, vehicle 100%; percent of control (FP), % (concentration not given with the values); AID 1224905, 2016;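 active = replicate mean at 85% of control or lower, very high polarization wells dropped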;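 note: wells of about 15 µL received 100 nL stock; the first replicate is given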
Target sequence (P08753 whole entry, looked up): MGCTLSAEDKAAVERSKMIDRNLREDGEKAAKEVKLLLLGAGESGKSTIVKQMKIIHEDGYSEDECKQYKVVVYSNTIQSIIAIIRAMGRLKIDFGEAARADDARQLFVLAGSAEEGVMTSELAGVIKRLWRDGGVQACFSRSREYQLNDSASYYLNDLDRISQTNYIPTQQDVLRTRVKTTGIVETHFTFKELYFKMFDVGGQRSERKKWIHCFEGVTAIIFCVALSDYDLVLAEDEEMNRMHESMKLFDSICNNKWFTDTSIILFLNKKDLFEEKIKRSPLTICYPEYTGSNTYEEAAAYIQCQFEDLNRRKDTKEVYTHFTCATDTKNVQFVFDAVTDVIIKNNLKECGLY
HCMV NEC inh – inhibitors of HCMV UL50-UL53 interaction, biochemical, HTRF; HCMV UL50-UL53 nuclear egress complex (human cytomegalovirus); normalized percent inhibition; inhibition, % (concentration not given with the values); 190,000 tested, 0.15% active; AID 1918969, 2023;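 active = both replicates at 50% or more, plus weaker picks with an unusually low signal ratio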;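 note: stock transfer was 100 nL into about 20 µL; 0% = negative control wells and 100% = wells with untagged competitor protein; inactives centre near -12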
Sa growth 42C – S. aureus growth inhibition at 42 and 30 °C, primary screen, LtaS inhibitor project, RN4220, two temperatures | OD600, 20 h, 42 °C; stronger effect = lower value | relative growth, % (concentration not given with the values) | 170,000 tested, 0.53% active;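 active = growth at 42 °C up to 50% and 20 or more points under that at 30 °C, or under 10% at both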;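 note: 300 nL library stock went into each well; scaled to the means of positive and negative controls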
Sa growth 42C second temp – also measured in Sa growth 42C; calls as there; relative growth, %; measured here: growth at 30 °C;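 optical density after 20 h as mean of two plates; 100% = untreated growth and lower means inhibition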
Numbers without * were called inactive; / = not tested or not shown; & = joins results of further samples.

SMILES	GIV-Gai inh	HCMV NEC inh	Sa growth 42C	Sa growth 42C second temp
CCOC(=O)/C(C#N)=N/Nc1ccc(SC(F)F)cc1	/	-12.9	33.5	10.7
COc1ccc(C2=NCC(CSc3nnnn3C)S2)cc1 (stereo unspecified)	/	-11.8	80.5	93.1
CCOC(=O)C(C(=O)O)C1CCCCC1 (stereo unspecified)	97.7	-17.8	106.8	86.8
c1ccc2nc(-c3nnc4sc(-c5ccncc5)nn34)ccc2c1	103.8	-89.0	/	/
Cc1ccccc1/C=N/n1c(C)cc(C)c(C#N)c1=O	98.8	/	87.0	92.0
COc1cccc(CNC2CCCC2)c1	/	-15.5	86.8	80.2
COC(=O)C1=C(O)c2cccc3c2N(CCC3)C1	104.0	-8.4	106.7	85.1
CCNc1nc(N(C)C)nc(-n2cnc(SC)n2)n1	106.7	7.4	/	/
CC(=O)N1c2ccc(S(=O)(=O)NCc3ccc(Cl)cc3)cc2CC1C (stereo unspecified)	106.4	/	101.6	99.0
CC(C)CCN[C@H]1CS(=O)(=O)C[C@@H]1S(=O)(=O)c1cccs1	95.0	-10.8	/	/
Cc1cc(C)nc(SCc2nnc(SCc3ccccc3)n2Cc2ccco2)n1	102.5	11.2	64.2	45.5
CCOc1ccc(N(CC)S(=O)(=O)N2CCCC(C(=O)Nc3ccc(OC)c(Cl)c3)C2)cc1 (stereo unspecified)	102.9	/	96.4	96.8
Cc1ccc(NC(=O)CSCC(N)=O)cc1C	104.9	3.4	109.5	100.3
CC(C)c1nnc(NC(=O)c2cc(=O)c3cc(F)ccc3o2)s1	102.7	2.8	/	/
O=C(Nc1ccccc1)NN1CC(=O)N(c2cccc(C(F)(F)F)c2)CC1=O	104.1	-16.6	93.1	83.6
C=CCn1c(=O)c2ccc(C(=O)NCc3ccccc3)cc2n(Cc2ccccc2C#N)c1=O	102.3	/	83.0	86.0
COC(=O)c1sccc1NS(=O)(=O)c1cc(Cl)cc(Cl)c1	100.6	-15.2	35.6	20.0
O=c1c2ccccc2nc2ccc(N3CCCC4CCCCC43)nn12 (stereo unspecified)	99.4	-59.7	84.2	69.0
Cc1cc(NC(=O)C(C)C)n(-c2ncnc3c2cnn3-c2ccc(F)cc2)n1	97.4	23.5	/	/
CCCc1cc(=O)[nH]c(SCc2nc(-c3ccccc3)no2)n1	101.8	/	91.5	91.6
CC1CCN(S(=O)(=O)c2ccc(NC(=O)c3ccc(C(C)(C)C)cc3)cc2)CC1	102.6	/	100.2	85.0
Cc1ccc(NC(=O)CSc2nc3ccc(Br)cc3[nH]2)c(C)c1	106.6	-6.0	103.5	92.7
O=C(NCCNCc1ccccc1)c1ccco1	108.5	6.3	101.3	101.4
NCCNS(=O)(=O)c1cccc2c(Cl)cccc12	104.7	-36.6&-38.8	/	/
c1ccc(CCSCc2nc3ccccc3[nH]2)cc1	100.1	/	76.1	66.1

Reprinted from the part before: three compounds; new compounds follow.
SMILES	GIV-Gai inh	HCMV NEC inh	Sa growth 42C	Sa growth 42C second temp
O=C(NCCNCc1ccccc1)c1ccco1	108.5	6.3	101.3	101.4
NCCNS(=O)(=O)c1cccc2c(Cl)cccc12	104.7	-36.6&-38.8	/	/
c1ccc(CCSCc2nc3ccccc3[nH]2)cc1	100.1	/	76.1	66.1
CCC(Sc1ncccc1C(=O)OC(C)C)C(=O)NCc1ccco1 (stereo unspecified)	100.6	/	108.4	74.0
CCOC(=O)c1c(CN2CCOCC2)n(C)c2ccc(O)cc12	/	-0.5	69.9	89.4
COc1ccc(C2C(C(=O)O)c3ccccc3C(=O)N2Cc2ccc(Cl)cc2)cc1 (stereo unspecified)	99.9	21.4	127.6	100.2
Cc1cn2c(=O)cc(COC(=O)c3ccccc3F)nc2s1	103.3	/	95.9	92.9
CCNC(=O)c1cnc2sc(N3CCC(C)CC3)nn2c1=O	97.9	/	91.2	95.5
NS(=O)(=O)c1ccc(CCNC(=O)CN2CCCc3ccccc32)cc1	/	13.9	98.5	94.0
CCOC(=O)c1cc(CN2CCOCC2)oc1-c1ccccc1	/	-6.7	91.8	85.1
O=C(O)c1ccc(NC(=O)c2ccc[n+]([O-])c2)cc1	/	-2.2	101.2	92.1
O=C(CN1C(=O)S/C(=C\c2cccs2)C1=O)OCC(=O)c1ccc[nH]1	/	-41.7	80.3	78.2
Cc1nc(N2CCOCC2)c2c(C(=O)N3CCN(c4ccc(Cl)cc4)CC3)c(C)oc2n1	95.2	/	96.6	83.2
CCN1CCN(CCNC(=O)Nc2ccc(Cl)cc2)CC1	105.2	/	111.9	92.2
COc1ccccc1NC(=O)CO/N=C(\C)c1cccs1	/	-25.0	90.6	64.7
COCc1cc(=O)n2[nH]c(-c3cccs3)cc2n1	103.9	-8.6	99.2	82.8
CCc1ccc(CNC(=O)CSc2cc(=O)n(CC)c3ccccc23)cc1	98.3	-44.0	111.6	85.9
O=C1N(Cc2ccccc2Cl)c2ccccc2C1(O)c1c[nH]c2ccccc12 (stereo unspecified)	109.6	-18.3	91.9	72.3
CCOC(=O)c1c(NC(C)=O)sc2c1CCC2	103.2	-39.7	86.2	76.6
Cc1ccc(/C=C/c2nc3ccccc3n2S(=O)(=O)c2cccc(Cl)c2)cc1	100.1	/	105.9	86.2
O=C(c1cccc(Cl)c1)N1c2ncnn2C2(CCCCC2)[C@@H]2CCCC[C@@H]21	98.8	-13.7	94.9	59.7
CCC(CC)C(=O)NCC1(N2CCN(CC)CC2)CCCCC1	101.0	-22.1	/	/
Cc1nn(CCC#N)c2nc(-c3ccc(C4CCCCC4)cc3)cc(C(=O)O)c12	/	2.1	79.6	98.8
CCCCN(C)C1CCN(Cc2ccccc2)CC1	104.4	12.8	105.7	111.9
COc1ccc(C2NC(=O)NC(C)=C2C(=O)OCCOc2ccccc2)cc1OC (stereo unspecified)	103.2	-11.7	/	/
CN1C(=O)COc2ccc(C(=O)CSc3nc(-c4ccccc4)c(C#N)c(=O)[nH]3)cc21	100.1	-16.0	105.0	81.0
CC(=O)Nc1ccc(NC(=O)C2CCCN(c3cnccn3)C2)cc1 (stereo unspecified)	102.4	-13.5	77.6	86.6
CCOc1ccc(NC(=O)CC2C(=O)N(c3cccc(OC)c3)C(=O)N2C2CCCCC2)cc1 (stereo unspecified)	94.9	-11.2	96.7	84.1
COc1ccc(-n2ccc3ccccc32)cc1	105.2	/	101.0	92.2
O=C1Cc2ccc(F)cc2CC1C1=Cc2ccc(F)cc2CC1 (stereo unspecified)	100.1	16.9	88.8	67.0
OC1CCCc2c1[nH]c1ccc(C(F)(F)F)cc21 (stereo unspecified)	102.7	13.7	68.3	58.6
Cc1nc2ccc(Cl)cc2c2c1CCS2	103.7	-17.3	102.2	101.8
Cc1nc(C)c(Oc2ccc(Cl)cc2Cl)c(N2CCCCC2)n1	98.6	-33.3	103.5	87.5

Molecules listed so far that have a Cl atom:
SMILES	GIV-Gai inh	HCMV NEC inh	Sa growth 42C	Sa growth 42C second temp
CC(=O)N1c2ccc(S(=O)(=O)NCc3ccc(Cl)cc3)cc2CC1C (stereo unspecified)	106.4	/	101.6	99.0
CCOc1ccc(N(CC)S(=O)(=O)N2CCCC(C(=O)Nc3ccc(OC)c(Cl)c3)C2)cc1 (stereo unspecified)	102.9	/	96.4	96.8
COC(=O)c1sccc1NS(=O)(=O)c1cc(Cl)cc(Cl)c1	100.6	-15.2	35.6	20.0
NCCNS(=O)(=O)c1cccc2c(Cl)cccc12	104.7	-36.6&-38.8	/	/
COc1ccc(C2C(C(=O)O)c3ccccc3C(=O)N2Cc2ccc(Cl)cc2)cc1 (stereo unspecified)	99.9	21.4	127.6	100.2
Cc1nc(N2CCOCC2)c2c(C(=O)N3CCN(c4ccc(Cl)cc4)CC3)c(C)oc2n1	95.2	/	96.6	83.2
CCN1CCN(CCNC(=O)Nc2ccc(Cl)cc2)CC1	105.2	/	111.9	92.2
O=C1N(Cc2ccccc2Cl)c2ccccc2C1(O)c1c[nH]c2ccccc12 (stereo unspecified)	109.6	-18.3	91.9	72.3
Cc1ccc(/C=C/c2nc3ccccc3n2S(=O)(=O)c2cccc(Cl)c2)cc1	100.1	/	105.9	86.2
O=C(c1cccc(Cl)c1)N1c2ncnn2C2(CCCCC2)[C@@H]2CCCC[C@@H]21	98.8	-13.7	94.9	59.7
Cc1nc2ccc(Cl)cc2c2c1CCS2	103.7	-17.3	102.2	101.8
Cc1nc(C)c(Oc2ccc(Cl)cc2Cl)c(N2CCCCC2)n1	98.6	-33.3	103.5	87.5

Source: PubChem
